Lassa entry inh – inhibitors of Lassa virus binding or cell entry | Lassa virus pseudotype entry inhibition, cell reporter; control for the full effect not named in the record | 300,000 tested, 1.2% active | Potency, µM (top dose mostly 37.9 µM), for inactives: at the top dose activity change, negative = inhibition, actives largely listed as inhibitors; active means well fitted inhibition curve with a large enough effect; inconclusive means small, poorly fitted or top-dose-only effect, or effect the other way; inactive means flat fitted curve, though single readings scatter; tested in HEK293 cells; also: % is scaled to controls: 0 for no effect and ±100 for the full control effect; nearly all actives have a fitted effect of over 50% in size; luciferase read-out
SARS PLP yeast – SARS-CoV PLP inhibition in yeast | S. cerevisiae expressing SARS-CoV PLpro, growth rescue; control for the full effect not named in the record | Potency, µM (top dose mostly 32.9 µM), without a hit: at the top dose activity, positive = growth rescue | 330,000 tested, 0.19% active; also: 0% is about no effect; nearly all actives have a fitted effect of over 55% in size; growth read by luminescence after 48 h
NS1 function inh – influenza NS1 inhibition | S. cerevisiae slowed by influenza A NS1, growth recovery by OD600 | 270,000 tested, 0.4% active | Potency, µM (highest dose often 46.1 µM), without a hit: at the highest dose activity, positive = more growth; also: actives are rising curves; nearly all actives have a fitted effect of over 50% in size
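Compounds were scored for reversing the slow growth caused by influenza A NS1 in S. cerevisiae, measured by optical density at 600 nm. Assay medium contained 2% galactose at pH 6.0; NS1-free yeast of the same strain were the positive control.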
Cruzain inh noDet – cruzain (T. cruzi) inhibition without detergent | Potency, µM, for inactives: max response, negative = inhibition, most hits filed as inhibitors | AID 1476 | purified cruzain, Z-FR-AMC fluorescence, no detergent | 200,000 tested, 2.3% active | P25779; active = well fitted curve in the direction sought with a large enough effect; inconclusive = small, poorly fitted or top-dose-only effect, or another doubt; inactive = no such curve, though single readings can be large; an effect the other way counts as inactive or inconclusive;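 also: plate controls were enzyme without inhibitor for no effect and buffer without enzyme for full effect; nearly all actives have a fitted effect of over 40% in size; top concentration of the series not given in the record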
Target sequence (P25779 123-467 limits assumed): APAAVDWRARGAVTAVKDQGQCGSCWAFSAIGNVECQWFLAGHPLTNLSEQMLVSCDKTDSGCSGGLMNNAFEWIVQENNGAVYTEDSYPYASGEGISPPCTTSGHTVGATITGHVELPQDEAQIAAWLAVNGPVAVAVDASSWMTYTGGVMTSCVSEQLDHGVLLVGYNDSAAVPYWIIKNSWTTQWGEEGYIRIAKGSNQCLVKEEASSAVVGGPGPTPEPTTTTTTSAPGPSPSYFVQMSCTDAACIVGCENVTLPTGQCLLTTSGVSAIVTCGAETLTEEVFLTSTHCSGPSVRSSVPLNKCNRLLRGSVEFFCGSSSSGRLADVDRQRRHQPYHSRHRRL
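Purified cruzain at 1.5 nM, pre-incubated 15 min with compound at room temperature in 100 mM sodium acetate pH 5.5, 5 mM DTT, 0.00005% Triton X-100. Reaction started with 2 uM Z-FR-AMC; AMC fluorescence increase over 60 s gives rate.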
Cruzain inh Det – inhibitors of Trypanosoma cruzi cruzain with detergent. purified cruzain, Z-FR-AMC fluorescence, 0.01% Triton. 200,000 tested, 0.43% active. Potency, µM, inactives show max response, negative = inhibition, actives largely listed as inhibitors; active = well fitted curve in the direction sought with a large enough effect; inconclusive = small, poorly fitted or top-dose-only effect, or another doubt; inactive = no such curve, though single readings can be large; an effect the other way counts as inactive or inconclusive;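 also: plate controls were neutral wells for no effect and buffer without enzyme for full effect; nearly all actives have a fitted effect of over 40% in size; top concentration of the series not given in the record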
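Sodium acetate buffer (100 mM, pH 5.5) containing 5 mM DTT and 0.01% Triton X-100 hosted 1.5 nM cruzain and test compound for 15 min at room temperature. Cleavage of 2 uM Z-FR-AMC was then tracked by fluorescence.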
MARV entry inh – inhibitors of Marburg virus binding or cell entry | 300,000 tested, 1.8% active | Potency, µM (top dose mostly 37.8 µM), inactives show top-dose activity change, negative = inhibition, actives largely listed as inhibitors | Marburg virus pseudotyped entry inhibition, cell reporter; control for the full effect not named in the record; about a third of the inactives were read at about 46 µM; active = well fitted inhibition curve with a large enough effect; inconclusive = small, poorly fitted or top-dose-only effect, or effect the other way; inactive = flat fitted curve, though single readings scatter; tested in HEK293 cells; about a fifth of its hits are not listed in these tables; also: % is scaled to controls: 0 for no effect and ±100 for the full control effect; luciferase read-out
RE007 growth inh – less growth of the S. pombe RE007 Vpr strain; S. pombe RE007 Vpr strain, BacTiter-Glo ATP luminescence, 24 h; control for the full effect not named in the record; Potency, µM (doses to about 92.2 µM), without a hit: top-dose activity change, negative = less growth; 360,000 tested, 0.21% active; AID 651644; active = well fitted falling curve with a large enough effect; inconclusive = small, poorly fitted or top-dose-only effect; inactive = no such curve, though single readings can be large or run the other way;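 also: % is scaled to controls: 0 for no effect and ±100 for the full control effect; nearly all actives have a fitted effect of over 50% in size; the assay follows cell death caused by Vpr and the record does not say whether a fall means rescue or toxicity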
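Fission yeast strain RE007, carrying one chromosomally integrated HIV-1 vpr copy, was seeded at OD 0.01 in PMG+AL medium with 23 nL pinned compound. After 24 h at 30 °C and 99% humidity, viability was read by BacTiter-Glo luminescence.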
2A StopGo – lowers the luciferase signal of an FMDV 2A StopGo reporter | 410,000 tested, 1.2% active | Potency, µM (highest dose often 57.9 µM), for the others: at the top dose signal change, negative = less light | human cells with a luciferase reporter of 2A StopGo recoding; control for the full effect not named in the record | AID 1159524; active = well fitted falling curve with a large enough effect; inconclusive = small, poorly fitted or top-dose-only effect; inactive = no such curve, though single readings can be large or run the other way; tested in HEK293T cells; also: % is scaled to controls: 0 for no effect and ±100 for the full control effect; nearly all actives have a fitted effect of over 45% in size; luciferase light after 4 h
Active calls of the source: *; ? = inconclusive; / = no result given; [ ] = another dose, or the depositor's remark. Unless noted, calls follow the shape of the dose curve; as a rule, active means well fitted rising curve with a large enough effect; inconclusive means small, poorly fitted or top-dose-only effect; inactive means no such curve, though single readings can be large or run the other way. Potency is read from the fitted curve at half-maximal effect.

SMILES | Lassa entry inh | SARS PLP yeast | NS1 function inh | Cruzain inh noDet | Cruzain inh Det | MARV entry inh | RE007 growth inh | 2A StopGo
Cc1c(NC(=O)[C@@H](NC(=O)c2ccc(Cl)c([N+](=O)[O-])c2)C(C)C)c(=O)n(-c2ccccc2)n1C | 6% | -12% | / | / | / | -5% | 18% | -17%
CCOC(=O)c1ncn2c1[C@H]1CCCN1C(=O)c1cc(OC)ccc1-2 | / | / | / | 8% | -3.2% | ? | / | -18%
COc1ccc(NC(=O)CCNS(=O)(=O)c2cc(Br)cnc2N)cc1OC | / | -2% | 0% | / | / | / | -6% | -2%
CC(=O)n1c(-c2ccccc2)c(-c2ccccc2)n(C)c1=O | -9% | / | / | / | / | -20% | 18% | -27%
O=C(NCC(=O)N(c1cccnc1)C(C(=O)NC1CCCC1)c1cccs1)c1ccco1 (stereo unspecified) | 5%[46.1 µM] | 0% | 5% | / | / | 6%[46.1 µM] | 4% | 17%
CCC(C)(C)n1nnnc1C(c1ccccc1OC)N1CCN(C(=O)c2ccco2)CC1 (stereo unspecified) | -1% | 1% | -7% | / | / | 2%[46.1 µM] | -11% | -2%
O=C(COc1cccnc1[N+](=O)[O-])Nc1cc(S(=O)(=O)N2CCCCC2)ccc1Cl | / | 1% | -9% | / | / | / | 4% | -24%
O=C(Nc1cccc(NC(=O)c2cccc(Cl)c2)c1)c1cccnc1 | -11% | -3% | -57% | / | / | -22% | -6% | -1%
CCCN(CCC)C(=O)Cn1c(=O)n(-c2cccc(OC)c2)c(=O)c2c3c(sc21)CCCC3 | 29%[46.1 µM] | / | / | -9% | -4.0% | ? | / | -29%
O=C(O)c1ccccc1-c1ccccc1C(=O)Nc1nccs1 | 1%[46.1 µM] | -11% | / | / | / | 4%[46.1 µM] | -15% | 4%
Cc1cc(Cl)ccc1OC(C)C(=O)Nc1ccccc1N1CCOCC1 (stereo unspecified) | ? | -13% | -47% | 11% | -2.1% | ? | 4% | ?
CCn1c(=O)c2cc(C(=O)Nc3ccc(OC)cc3OC)sc2c2ccccc21 | / | -1% | 0% | / | / | / | -6% | -20%
CC1CN(C2CCN(S(=O)(=O)Cc3ccccc3)CC2)CC(C)O1 (stereo unspecified) | -11% | -1% | 1% | 8% | 3.0% | 0% | -8% | -11%
CCOc1ccc(-n2cnnn2)cc1S(=O)(=O)N1CCC(C)CC1C (stereo unspecified) | 1% | 1% | / | / | / | -2%[46.1 µM] | -5% | 4%
COC(=O)c1c(NC(=O)C(=O)NCCCN2CCOCC2)sc2c1CCC2 | / | 0% | -12% | / | / | / | -8% | 5%
COc1ccc(S(=O)(=O)N(C)C)cc1NCC(=O)Nc1ccc(Br)c(C)c1 | -19% | 0% | / | / | / | ? | -25% | -18%
CCOC(=O)c1c(NC(=O)c2noc3c2CC(C(C)(C)C)CC3)sc2c1CCCC2 (stereo unspecified) | 5%[46.1 µM] | / | / | -1% | -3.5% | -17%[46.1 µM] | / | -10%
Cc1cccc(N=C2NC(=O)/C(=C/c3cccs3)S2)c1 | ? | -6% | 19% | ? | -6.1% | ? | 7% | 32%[activator]
Cc1ccc(-n2ncc(C(=O)NCCCN3CCCCC3)c2C2CCN(C(=O)OC(C)(C)C)CC2)c(C)c1 | -27%[46.1 µM] | / | / | 8% | -0.6% | / | / | -21%
COc1cc(C(=O)N2CCN(C(=O)C3COc4ccccc4O3)CC2)cc(OC)c1OC (stereo unspecified) | -6%[46.1 µM] | 7% | -8% | / | / | 19%[46.1 µM] | 7% | -12%
COc1ccccc1N1CCN(CC(O)COc2ccc(Cl)c(C)c2)CC1 (stereo unspecified) | -13%[46.1 µM] | / | / | -4% | -2.1% | -35%[46.1 µM] | / | -24%
CC(C)(C)c1csc(NC(=O)c2ccc(Cl)s2)n1 | ? | -12% | -62% | -10% | -4.0% | ? | -12% | -40%
O=C(N[C@@H](Cc1ccc(O)cc1)C(=O)O)c1ccc(C(F)(F)F)cc1 | / | 0% | 0% | / | / | / | 5% | -7%
CCc1ccc(OCC(=O)NNC(=O)c2nn(CC)c(=O)c3ccccc23)cc1 | 9% | -4% | -11% | / | / | 20% | -7% | -5%
Cc1ccc(Nc2cnn(C34CC5CC(CC(CC(=O)O)(C5)C3)C4)c(=O)c2Cl)c(Cl)c1 | -1%[46.1 µM] | 3% | / | / | / | 15%[46.1 µM] | -19% | 1%
Further results
SMILES | Lassa entry inh | SARS PLP yeast | NS1 function inh | Cruzain inh noDet | Cruzain inh Det | MARV entry inh | RE007 growth inh | 2A StopGo
Cc1ccccc1-c1nc2c3c(-c4ccccc4)c(-c4ccccc4)oc3ncn2n1 | -9%[46.1 µM] | / | / | -5% | -0.4% | / | / | 29%
Cc1ccccc1C1CC(c2cccs2)Nc2nnnn21 (stereo unspecified) | -16% | 1% | -2% | / | / | 14%[46.1 µM] | 13% | -5%
CC(=O)Nc1ccc(NS(=O)(=O)c2ccc(-c3cnc(C4CC4)o3)cc2)cc1 | ? | 7% | -9% | / | / | ? | 1% | 3%
COc1cc(CN(C(=O)c2oc3ccccc3c2C)C2CCS(=O)(=O)C2)cc(OC)c1OC (stereo unspecified) | -20%[46.1 µM] | / | / | 13% | -1.6% | -19%[46.1 µM] | / | -14%
CC(C)n1cnc2c(NCc3ccccc3)nc(NCc3ccccc3)nc21 | / | -1% | 1% | / | / | / | -15% | -17%
Cc1ccc(NC(=O)Cn2c(=O)n(CCC(=O)NCc3ccccc3Cl)c(=O)c3ccccc32)c(C)c1 | 3%[46.1 µM] | / | / | -13% | 0.0% | -16%[46.1 µM] | / | 4%
Cc1ccnc(N2CCC(C(=O)NC3CCCCCC3)CC2)n1 | 15% | -1% | -10% | -13% | -2.9% | -7% | -2% | -14%
COCCN1Cc2cccc(C(=O)NCc3ccccc3OC)c2C1=O | 6% | -1% | -38% | -2% | 0.5% | -7%[46.1 µM] | 10% | 1%
COc1ccccc1NC(=O)CCNS(=O)(=O)c1ccc2[nH]c(=O)oc2c1 | / | -3% | 4% | / | / | / | 11% | -4%
COc1cc(C(=O)NCC(c2ccco2)N(C)C)cc(OC)c1OC (stereo unspecified) | -3% | 15% | -5% | 0% | 1.7% | -20% | -11% | 2%
O=C(CCC1CCCN(C(=O)c2ccc3cc[nH]c3c2)C1)N1CCN(c2ccccn2)CC1 (stereo unspecified) | ? | -2% | -4% | / | / | ? | -12% | ?
Cc1cc(C)cc(NC(=O)Nc2cc(-c3ccccc3)nn2C)c1 | 4%[46.1 µM] | 0% | 6% | / | / | 22%[46.1 µM] | 1% | -4%
Cc1ccccc1OCCC(=O)OCC(=O)Nc1c(C)nn(-c2ccccc2)c1C | 0% | -3% | / | / | / | -11%[46.1 µM] | -11% | -12%
O=C1c2ccccc2C(=O)N1Cc1nc2ccccc2c(=O)n1-c1ccccn1 | 11% | -3% | 6% | -3% | -0.6% | 20% | 9% | -11%
O=C(NCc1ccc(Cl)cc1)C1CCN(S(=O)(=O)c2cccs2)CC1 | -4% | -1% | 0% | / | / | ? | 60% | -15%
N=c1c(C(=O)NCc2ccco2)cc2c(=O)n3ccccc3nc2n1Cc1ccccc1 | -6% | 0% | -5% | -2% | -13% | ? | -19% | -2%
COc1cc(SC)ccc1C(=O)NCCOc1ccc(C)c(C)c1 | -24% | -7% | -8% | 3% | -8.9% | 3% | -13% | 1%
O=C(/C=C\c1ccco1)NC(=S)Nc1ccccc1O | / | -3% | -5% | / | / | / | -7% | 14%
CN(Cc1ccccc1N1CCCC1)C(=O)c1cc2ccccc2o1 | -1%[46.1 µM] | -15% | / | / | / | ? | -7% | -23%
CCOC(=O)C1CCCN(C(=O)c2cc(-c3ccccc3)nc3ccccc23)C1 (stereo unspecified) | -1% | -17% | / | / | / | -14%[46.1 µM] | 4% | 2%
CCCC1CC(CSC(=N)N)OC1=O (stereo unspecified) | -21% | 14µM* | -1% | 10% | 2.1% | ? | -6% | -23%
COc1ccc(NC(=S)NC(NC(=O)CF)C(Cl)(Cl)Cl)c([N+](=O)[O-])c1 (stereo unspecified) | -9% | -6% | -2% | 8% | -5.3% | -3% | 0% | 8%
CC(=O)Nc1cccc(NC(=O)CSc2ccc(-c3sc(-c4ccccc4)nc3C)nn2)c1 | ? | / | / | ? | -6.1% | / | / | -25%
CC(=O)c1cccc(NC(=O)CSc2nnc(C(C)N(C)C)n2Cc2ccccc2)c1 (stereo unspecified) | -19%[46.1 µM] | -4% | -18% | / | / | -4%[46.1 µM] | -3% | 4%
CCCCSCCCNC(=O)c1cn(CC)c2ccc(S(=O)(=O)N(C)C3CCCCC3)cc2c1=O | 1%[46.1 µM] | / | / | ? | -8.1% | -20%[46.1 µM] | / | 12%
The listing continues:
SMILES | Lassa entry inh | SARS PLP yeast | NS1 function inh | Cruzain inh noDet | Cruzain inh Det | MARV entry inh | RE007 growth inh | 2A StopGo
COc1cccc(/C=N/NC(=O)Cn2cnc3c2c(=O)n(C)c(=O)n3C)c1 | ? | 0% | 9% | / | / | 6% | -17% | -10%
Cc1c(C(=O)O)oc2ccc(S(=O)(=O)NC3CCCCCCC3)cc12 | 1% | 24% | 22% | -1% | 6.6% | 0% | 4% | 91%[activator]
O=C(NCCc1ccc(Cl)cc1)c1ccc2c(c1)N(Cc1ccc(Cl)cc1)C(=O)CS2 | -12%[46.1 µM] | / | / | ? | -2.8% | ? | / | -39%
Cc1ccc(OCCC(=O)OCC(=O)NC2CCCC2)cc1 | 12% | 3% | / | / | / | 4% | 4% | -15%
COc1ccc(C(=O)N2CCCCC2)cc1S(=O)(=O)Nc1cccc(C(=O)O)c1 | 15% | 4% | 11% | -2% | -4.5% | 17% | 9% | /
Cc1ccc2c(c1)c1c(n2CC2COC(C)(C)O2)C(=O)CCC1 (stereo unspecified) | 4% | -14% | -135% | 7% | -12% | 12% | -8% | -17%
CCCn1nc(NS(=O)(=O)c2cccc3nonc23)c2cc3cccc(C)c3nc21 | / | -1% | 21% | / | / | / | 3% | 18%

Hits appear at their usual frequency. About 4.7% of those tested had a hit in this group.
